# Screening data (PubChem BioAssay)
# PV pol inh: inhibitors of poliovirus RNA polymerase binding and polymerization; P03300; poliovirus polymerase elongation, fluorescence polarization; hits give low values; % elongation, % (compound at 16.7 µg/mL); actives 0.66% (n = 150,000); in the data active = % elongation below about 90%; also: some results filed as inactive read as strong as hits
# Target sequence (P03300 1749-2209 limits assumed): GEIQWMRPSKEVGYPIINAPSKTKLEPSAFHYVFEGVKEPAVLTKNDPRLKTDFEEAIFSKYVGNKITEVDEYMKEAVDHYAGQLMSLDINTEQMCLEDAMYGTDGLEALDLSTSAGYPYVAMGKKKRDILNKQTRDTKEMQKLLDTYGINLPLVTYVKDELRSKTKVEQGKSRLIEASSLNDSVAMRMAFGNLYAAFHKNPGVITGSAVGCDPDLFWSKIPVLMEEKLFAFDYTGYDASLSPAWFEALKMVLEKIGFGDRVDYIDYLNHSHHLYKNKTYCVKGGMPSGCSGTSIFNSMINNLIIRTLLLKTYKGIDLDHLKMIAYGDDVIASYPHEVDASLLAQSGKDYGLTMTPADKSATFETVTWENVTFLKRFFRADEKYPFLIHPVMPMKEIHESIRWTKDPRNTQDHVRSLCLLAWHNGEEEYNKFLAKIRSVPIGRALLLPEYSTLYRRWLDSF
# PV pol inh intensity: recorded beside PV pol inh, whose call it bears; % elongation; measured here: total intensity read-out; formula for this scale not given here;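 total fluorescence in place of polarization; lower means less elongation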
# * = called active by the depositor. Only part of the results is shown; rates above refer to the full screens.
SMILES,PV pol inh,PV pol inh intensity
COc1ccccc1OCC(=O)Nc1c(C(=O)c2ccc(C)cc2)oc2ccccc12,105,105
Cc1ccc(Nc2c(-c3ccsc3)nc3c(C)cccn23)cc1,106,105
Cc1cc(C)c(Cn2c3ccccc3c3cnn(CC(=O)NCCCc4ccccc4)c(=O)c32)c(C)c1,107,104
COc1ccc(S(=O)(=O)NCCS(=O)(=O)N2CCN(c3ccccc3F)CC2)cc1,99,97
COc1ccc(NC(=O)c2oc3ccccc3c2NC(=O)Cc2ccc(F)cc2)c(OC)c1,108,112
O=C(NCc1cccnc1)c1nn(-c2ccc(Cl)cc2)nc1CO,108,105
Cc1ccccc1C(c1c(C)n(C)n(-c2ccccc2)c1=O)c1c(C)n(C)n(-c2ccccc2)c1=O,107,110
COc1ccc(N2CCN(C(=O)c3c4c(nc5ccccc35)C(=O)N(C3CCCCC3)C4)CC2)cc1,107,101
CCOc1ccc(S(=O)(=O)Nc2cccc(C)c2)c2cccnc12,100,102
COCCCNC(=O)Cn1c(=O)nc(-c2ccccc2)c2ccccc21,107,106
CCc1nn(C(C)C(=O)N2CCN(c3cccc(C(F)(F)F)c3)CC2)c(=O)c2cc3occc3n12 (stereo not given),101,102
COc1ccccc1Cn1c(CNS(=O)(=O)c2ccc(Cl)s2)nc2cccnc21,109,122
CCC(=O)C1=C(c2cccc([N+](=O)[O-])c2)N(C(=O)CC)n2c(nnc2C2CCCCC2)S1,108,107
COc1ccc(C)cc1NC(=O)CSc1nc(=O)n(Cc2ccco2)c2c1CCC2,108,106
CN1C(C(=O)Nc2ccc(F)cc2F)=CC(c2cccs2)=NS1(=O)=O,106,102
Cc1cc(C)c(S(=O)(=O)NCC(c2ccco2)N2CCN(c3ccccc3)CC2)c(C)c1 (stereo not given),114,118
CCc1ccc2nc(N(Cc3cccnc3)C(C)=O)sc2c1,109,107
CCC(C)NC(=O)Cc1ccc(NC(=O)N2CCCCc3ccccc32)cc1 (stereo not given),99,104
COc1ccccc1NC(=O)Cn1cc(S(=O)(=O)Cc2ccccc2)c2ccccc21,114,107
Cc1ccc(-c2nc3scc(CCNC(=O)c4cccc(Br)c4)n3n2)cc1,104,102
c1ccc(Nc2c(-c3c[nH]c4ccccc34)nc3ccccn23)cc1,107,107
COc1ccc(C2CC(c3c(O)n(C4CCCCC4)c(=O)[nH]c3=O)=Nc3ccccc3S2)cc1 (stereo not given),106,112
Cc1ccc(Cl)cc1-n1ncc2c(NCCC3=CCCCC3)ncnc21,103,99
COc1ccc(-c2cc3ccc(O)c(CN4CCOCC4)c3oc2=O)cc1OC,104,113
CCn1cc(S(=O)(=O)c2cc(C)cc(C)c2)c(=O)c2cc(F)c(N3CCCC3)cc21,104,97
CCOc1ccc(CNC(=O)C2CCN(C3=NS(=O)(=O)C(c4ccc(C)cc4)=C3CC)CC2)cc1,108,108
Cc1c(Cl)cccc1NC(=O)CC1Oc2ccccc2NC1=O (stereo not given),107,110
COc1ccc(S(=O)(=O)NCC(c2ccco2)N2CCN(c3ccccc3F)CC2)cc1C (stereo not given),119,125
COc1ccc2c(CNC3CCCCCC3)c(C(=O)O)n(Cc3cccc(F)c3)c2c1,103,103
COc1cccc(NC(=O)CN2C=NS(=O)(=O)c3ccccc32)c1,100,101
CCc1ccccc1NC(=O)CC1NCCNC1=O (stereo not given),102,103
CCOc1ccc(/C=C(\C#N)c2nc(-c3cc4ccccc4oc3=O)cs2)c(OCC)c1,101,108
COc1cc(NC(=O)C2CCN(S(=O)(=O)c3ccc4c(c3)oc(=O)n4C)CC2)cc(OC)c1,110,110
CCN(CCCNC(=O)CSc1cc(=O)n(C)c2cc(Cl)ccc12)c1cccc(C)c1,103,95
CCOC(=O)c1c(-c2ccccc2)oc2ccc(N(C(C)=O)S(=O)(=O)c3ccccc3)cc12,107,110
CCOC(=O)c1c(C)[nH]c(CCC(=O)NCCCN2CCN(c3cc(Cl)ccc3C)CC2)c1C,111,116
COc1ccc2oc(=O)cc(CN3CCN(c4ccc(F)cc4)CC3)c2c1,102,107
CCn1cc2nc(SCc3ccc(F)cc3)n(CCc3ccccc3)c(=O)c2n1,104,103
COc1ccc(N(Cc2cc3ccccc3[nH]c2=O)C(=O)c2cccc(Cl)c2)cc1,121,123
COc1cc(-c2nc(Cn3nnc(C(=O)Nc4ccccc4)c3C)c(C)o2)cc(OC)c1OC,107,107
COc1cc(Nc2nc(SCC(=O)c3ccc(Cl)c(Cl)c3)nc3ccccc23)cc(OC)c1,111,108
COc1ccc(-n2nc3ccc(NC(=O)COc4ccc(C)c(C)c4)cc3n2)cc1,100,103
CCOc1ccccc1CNC(=O)c1cnc2sc(N3CCOCC3)nn2c1=O,101,105
CCOC(=O)C1CCCN(c2nc3c(S(=O)(=O)c4ccc(CC)cc4)nnn3c3ccc(Cl)cc23)C1 (stereo not given),106,112
CCOC(=O)c1ccc(N2CCN(c3cc(Cl)ccc3C)CC2)c(NC(=O)Nc2cccc(OC)c2)c1,114,100
COc1ccc(Cn2c(CO)cnc2SCc2cccc(C)c2)cc1,110,111
COc1ccc(CCNS(=O)(=O)c2cc(-c3cc(C)no3)ccc2C)cc1OC,106,105
Cc1ccc(N2CC(C(=O)Nc3ccc(Br)cc3)CC2=O)cc1 (stereo not given),100,96
Cc1ccc(S(=O)(=O)N(CC(O)Cn2c3ccccc3c3ccccc32)c2cccc(C(=O)N(C)C)c2)cc1 (stereo not given),106,111
Cc1cc2nc(-c3ccc(NC(=O)c4cc5ccccc5o4)cc3)oc2cc1C,103,106
CN(c1ccccc1)S(=O)(=O)c1nnc(NC(=O)c2cccs2)s1,109,109
CCSc1nnc2n(-c3cccc(C)c3)c(=O)c3c4c(sc3n12)CCCC4,107,108
Cc1cc(NC(=O)Nc2nnc(N(C)C3CCCCC3)s2)ccc1Br,106,107
CCn1c(=N)c(C(=O)NCc2cccnc2)cc2c(=O)n3cc(C)ccc3nc21,113,116
COc1cc(/C=C(/C#N)c2nc(-c3cc4ccccc4oc3=O)cs2)ccc1O,107,108
CC(=O)c1sc2c(c1C)c(=O)n(-c1ccc(Cl)cc1)c(=O)n2Cc1cc(=O)n2cc(Cl)ccc2n1,107,106
CCOc1ccc(NC(=O)CCS(=O)(=O)c2ccc(Br)cc2)cc1,100,103
O=C(c1cnc(N2CCOCC2)c2ccccc12)N1CCN(c2ccccc2)CC1,108,111
CCOc1ccc(S(=O)(=O)Nc2cc3c(C(=O)OCc4ccccc4)c(C)oc3c3ccccc23)cc1,106,107
Cc1ccccc1Cn1c(=O)n(Cc2ccc(Cl)cc2)c(=O)c2cccnc21,101,105

# Continuation:
SMILES,PV pol inh,PV pol inh intensity
Cc1ccc(N2C(=O)CCSC23C(=O)N(Cc2ccccc2)c2ccccc23)cc1 (stereo not given),110,112
O=S(=O)(c1ccccc1)c1nc(-c2cccc(Cl)c2)oc1N1CCOCC1,109,109
Cc1ccc(Nc2ccc(N3CCN(C(=O)c4ccc([N+](=O)[O-])cc4)CC3)nn2)cc1,113,110
O=C(Nc1ccc(Br)cc1F)c1cc(S(=O)(=O)NCc2ccc(F)cc2)ccc1F,102,108
Cc1ccc(S(=O)(=O)c2cn(Cc3ccc(F)cc3)c3cc(N4CCCC4)c(F)cc3c2=O)cc1,108,114
CCc1ccc(OCC(=O)Nc2ccc(Cl)c(-c3nc4cc(C)cc(C)c4o3)c2)cc1,104,104
Cc1ccc(S(=O)(=O)c2cnc(SCC(=O)Nc3ccc4c(c3)OCCO4)[nH]c2=O)cc1,107,109
COCCNC(=O)c1cnn(-c2cccc(C)c2)c1-n1cccc1,101,107
Cc1oc2c(cc(NS(=O)(=O)c3ccc(C(C)C)cc3)c3ccccc32)c1C(=O)OCc1ccccc1,108,109
COc1ccc(NC(=O)c2ccc3oc(=O)c(S(=O)(=O)c4ccc(F)cc4)cc3c2)c(OC)c1,108,111
Cc1ccc(-n2ncc3c(NCCc4ccccc4)ncnc32)cc1,103,106
CCc1ccc2oc(-c3cc(NC(=O)c4cc([N+](=O)[O-])ccc4N4CCOCC4)ccc3Cl)nc2c1,104,108
Cc1ccc(C)c(CSc2nc3ccncc3n2CC(=O)Nc2ccc(N(C)C)cc2)c1,107,106
CCN(CC)c1ccc(C(=O)N2CCC(c3c[nH]c4ccccc34)(c3c[nH]c4ccccc34)CC2)cc1,107,112
Cn1c(=O)c(=O)n(C)c2cc(N3CCOCC3)c(NS(=O)(=O)c3ccc(F)c(Cl)c3)cc21,111,109

# A second format for some results above.
SMILES | PV pol inh | PV pol inh intensity
O=C(c1cnc(N2CCOCC2)c2ccccc12)N1CCN(c2ccccc2)CC1 | 108 | 111
CCOc1ccc(S(=O)(=O)Nc2cc3c(C(=O)OCc4ccccc4)c(C)oc3c3ccccc23)cc1 | 106 | 107
Cc1ccccc1Cn1c(=O)n(Cc2ccc(Cl)cc2)c(=O)c2cccnc21 | 101 | 105
Cc1ccc(N2C(=O)CCSC23C(=O)N(Cc2ccccc2)c2ccccc23)cc1 (stereo not given) | 110 | 112
O=S(=O)(c1ccccc1)c1nc(-c2cccc(Cl)c2)oc1N1CCOCC1 | 109 | 109
Cc1ccc(Nc2ccc(N3CCN(C(=O)c4ccc([N+](=O)[O-])cc4)CC3)nn2)cc1 | 113 | 110
O=C(Nc1ccc(Br)cc1F)c1cc(S(=O)(=O)NCc2ccc(F)cc2)ccc1F | 102 | 108
Cc1ccc(S(=O)(=O)c2cn(Cc3ccc(F)cc3)c3cc(N4CCCC4)c(F)cc3c2=O)cc1 | 108 | 114
CCc1ccc(OCC(=O)Nc2ccc(Cl)c(-c3nc4cc(C)cc(C)c4o3)c2)cc1 | 104 | 104
Cc1ccc(S(=O)(=O)c2cnc(SCC(=O)Nc3ccc4c(c3)OCCO4)[nH]c2=O)cc1 | 107 | 109
COCCNC(=O)c1cnn(-c2cccc(C)c2)c1-n1cccc1 | 101 | 107
Cc1oc2c(cc(NS(=O)(=O)c3ccc(C(C)C)cc3)c3ccccc32)c1C(=O)OCc1ccccc1 | 108 | 109
COc1ccc(NC(=O)c2ccc3oc(=O)c(S(=O)(=O)c4ccc(F)cc4)cc3c2)c(OC)c1 | 108 | 111
Cc1ccc(-n2ncc3c(NCCc4ccccc4)ncnc32)cc1 | 103 | 106
CCc1ccc2oc(-c3cc(NC(=O)c4cc([N+](=O)[O-])ccc4N4CCOCC4)ccc3Cl)nc2c1 | 104 | 108
Cc1ccc(C)c(CSc2nc3ccncc3n2CC(=O)Nc2ccc(N(C)C)cc2)c1 | 107 | 106
CCN(CC)c1ccc(C(=O)N2CCC(c3c[nH]c4ccccc34)(c3c[nH]c4ccccc34)CC2)cc1 | 107 | 112
Cn1c(=O)c(=O)n(C)c2cc(N3CCOCC3)c(NS(=O)(=O)c3ccc(F)c(Cl)c3)cc21 | 111 | 109

# (more compounds)
SMILES,PV pol inh,PV pol inh intensity
CCOc1ccc(C(=O)OCc2cc(=O)n3nc(C4CC4)sc3n2)cc1,96,286
COc1ccc(NC(=O)/C=C\C(=O)N(c2ccc(C(C)C)cc2)C(C(=O)NCc2ccco2)c2ccc(F)cc2)cc1 (stereo not given),114,114
CC(C)c1ccc(NC(=O)c2ccc(F)c(S(=O)(=O)N3CCCC3)c2)cc1,111,110
CCOCCn1c(=NC(=O)c2ccc3c(c2)OCCO3)sc2cc(OCC)ccc21,114,118
C=Cc1ccc(Cn2c(C)c(CNCc3ccc(SC)cc3)c(C(=O)O)c2C)cc1,100,103
COc1ccc(Br)cc1CNC(=O)Cn1nc(C)n2c(cc3cc(F)ccc32)c1=O,108,114
CCc1ccc(NC(=O)Cn2c(=O)n(CC3CCCO3)c(=O)c3cc(OC)c(OC)cc32)cc1 (stereo not given),111,111
Cc1cccc(CN2C(=O)c3ccccc3Sc3ccc(C(=O)NCCCN4CCOCC4)cc32)c1,105,107
CCOC(=O)c1ccc(NC2=CC(c3ccc(OCC)cc3)N(c3ccc(C(=O)OCC)cc3)C2=O)cc1 (stereo not given),105,108
Cc1ccc(-c2csc(/C(C#N)=C/c3ccccc3Cl)n2)cc1,107,117
COC(=O)c1nnn(CC(=O)NC(=O)Nc2c(C)cccc2C)c1C(=O)OC,105,111
COc1ccc(N2CCN(c3oc(-c4ccc(COc5cccc(C)c5)o4)nc3C#N)CC2)cc1,102,104
Nc1c(C(=O)c2ccc(F)cc2)sc(Nc2ccccc2F)c1S(=O)(=O)c1ccc(Br)cc1,102,103
COc1cccc(CNC(=O)C2CCC(CNS(=O)(=O)c3ccc4c(c3)CCCC(=O)N4)CC2)c1 (stereo not given),116,105
COc1ccc(CCCc2nnc(SCC(=O)Nc3ccc(C)cc3)o2)cc1,105,108
CC(=O)c1ccc(NC(=O)c2cc(S(=O)(=O)N3CCCCCC3)cn2C)cc1,107,106
Cc1ccc2c(c1)c1c(c(=O)n(-c3cccc(Cl)c3)c(=O)n1C)n2C,106,104
Cc1ccc(NC(=O)c2cnc(SCC(=O)N3CCCc4ccccc43)n(C)c2=O)cc1,111,105
O=C(CSCc1cc(=O)c2cc(F)ccc2[nH]1)Nc1ccccc1Cl,109,114
Cc1ccccc1Cn1c2ccccc2c2cnn(CC(=O)NCCc3ccccc3)c(=O)c21,106,105
Cc1ccc(-n2ncc(C(=O)Nc3ccc4c(c3)OCO4)c2C2CCN(C(=O)OC(C)(C)C)CC2)c(C)c1,111,101
Cc1ccc(NC(=O)Cn2c(=O)c3cc(Cl)ccc3n3nncc23)cc1,106,111
CSc1ncc(Cl)c(C(=O)N(Cc2ccc(C)cc2)C2CCS(=O)(=O)C2)n1 (stereo not given),120,118
Cc1c(C(=O)OC2CCCCC2)[nH]c2c1C(=O)CC(c1ccccc1)C2 (stereo not given),105,110
CCOc1ccccc1NC(=O)N1CCc2c(sc(C)c2CC)C1c1ccccc1 (stereo not given),101,104
Cc1c(Cl)cccc1NC(=O)Nc1c[nH]c(=O)[nH]c1=O,102,102
COc1ccc(CNC(=O)c2ccc(N3CCCC3)c(NC(=O)NCc3ccc(F)cc3)c2)cc1,106,112
CCC1CN(C(=O)N2CCC(C(=O)NCc3ccc(C)o3)CC2)c2cc(C)ccc2O1 (stereo not given),111,113
COc1ccc(C2NC(=O)N(C)C3=C2C(=O)N(c2ccccc2)C3)cc1 (stereo not given),102,104
O=C(CCS(=O)(=O)c1ccc(Br)cc1)Nc1ccc(F)cc1F,101,105
Cc1cccc(C)c1NC(=O)CSc1nc(-c2cccs2)cc(C(F)(F)F)n1,101,103
Cc1c(C(=O)NCc2ccc(F)cc2)sc2nc(-c3ccccc3)cn12,112,104
COC(=O)c1c(NC(=O)c2cc(=O)c3ccc(C)c(C)c3o2)sc2c1CCCC2,108,105
